From PubChem
Mtb hypoxia rep – Mtb hypoxia fluorescent reporter inhibition | actives 0.1% (n = 300,000) | M. tuberculosis hypoxia-regulated fluorescent reporter, fluorescence | fluorescence inhibition, % (test concentration not listed);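 active means 35 to 45% if threefold the growth effect, above 45% if 1.5-fold the growth effect; inactive means the rest, general growth blockers included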;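 further: wells of about 50 µL received 100 nL stock; 0% = vehicle wells and 100% = reference inhibitor wells; whole bacteria with a GFP reporter of the hypoxia response; strong numbers were not always called active; many hits fall short of the cut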
BJeLR lethal – kills HRASV12-expressing BJeLR cells; BJeLR (HRASV12) viability, CellTiter-Glo ATP luminescence, 48 h; reference of the scale not given here; inhibition, % (no concentration beside the values); AID 1554; actives 0.17% (n = 300,000);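 active means replicate mean above 50%; inconclusive means above 50% but judged a plate artefact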;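 further: 50 nL library stock added to about 25 µL; numbers are from one replicate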
Sa ugtP lethal – kills S. aureus RN4220 lacking UgtP | S. aureus RN4220 ugtP deletion, OD600 growth, 16 h; some inactives read as strong as hits | growth inhibition, % (test concentration not listed) | actives 0.54% (n = 330,000) | AID 1259309;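 active means z-score under -3 and OD600 up to 0.15 on both plates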;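 further: plate controls were untreated wells for no effect and antibiotic for full effect; wells of about 80 µL received 100 nL stock; the first replicate is given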
RN4220 kill – S. aureus RN4220 growth inhibition | inhibition, % (no concentration beside the values) | OD600, 16 h | actives 0.33% (n = 330,000) | AID 1259311;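 active means z-score of -3 or lower and OD600 up to 0.18 on both plates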;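 further: plate controls were untreated cells for no effect and reference antibiotic for full effect; stock transfer was 100 nL into about 80 µL; one replicate is shown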
Bead autofluor – counter-screen for toxin protease inhibitors: compound fluorescence; AID 624483; compound autofluorescence counterscreen, microsphere flow cytometry; active compounds read high; fluorescence intensity (concentration not given with the values); actives 3.1% (n = 360,000);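 active means at least 3 SD above the mean of all compounds, about 16000 in these data; inconclusive means too few beads counted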;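 further: 100 nL of 1 mM stock went into each well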
PrP 5UTR inh – suppresses PrP 5' UTR mRNA reporter expression; cell-based PrP 5' UTR mRNA reporter, plate reader; inhibition, % (concentration not given with the values); actives 0.35% (n = 340,000); AID 488862;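 active means every replicate at 50% or more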;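 further: 0 = median of the neutral control wells; tested in H4 reporter cells; numbers are from one replicate; inactives centre near -14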
Mtb hypoxia rep growth – recorded beside Mtb hypoxia rep, whose call it bears; growth inhibition, %; measured here: M. tuberculosis growth (absorbance);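 0% = vehicle and 100% = reference antibiotic; read after six days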
The depositor's hits bear a star; u = inconclusive; x = no result given; & = joins results of further samples.

SMILES | Mtb hypoxia rep | Mtb hypoxia rep growth | BJeLR lethal | Sa ugtP lethal | RN4220 kill | Bead autofluor | PrP 5UTR inh
CC(C)(Oc1ccc(Cl)cc1)C(=O)OCC(=O)N1CCCC1 | 16 | 2 | 17 | 8 | 7.9 | 3247 | -20
COc1ccccc1CCN1CCCC(CN(C)C(=O)c2ccoc2)C1 (stereo not given) | 6 | 1 | 2 | 12 | 4.3 | 6138 | -23
CN(Cc1ccccc1)C(=O)c1ccccc1NC(=O)c1ccco1 | x | x | 1 | x | x | 2144 | -17
CCOC(=O)/C(=C/Nc1ccc(F)cc1)[N+](=O)[O-] | -5 | -9 | 0 | -1 | -5.2 | 3350 | -15
COc1cc(/C=C(/C#N)c2nc3ccccc3c(=O)[nH]2)ccc1O | x | x | -1 | 10 | 3.8 | 2617 | -14
Nc1nccnc1C(=O)N/N=C/c1ccco1 | x | x | -7 | x | x | 4345 | -21
COc1ccc(C=NNC(=O)CCN2CCCCC2c2cccnc2)cc1Cn1cc([N+](=O)[O-])cn1 (stereo not given) | -1 | -1 | x | 5 | 1.0 | x | x
CSc1ccc(CCNC(=O)C2CCCN(S(=O)(=O)N3CCOCC3)C2)cc1 (stereo not given) | -1 | -3 | 6 | 1 | 3.0 | 5946 | -9
Cc1ccc(CN2CCS(=O)(=O)CC2)cc1 | x | x | 6 | 8 | -1.0 | 2893 | -25
NC(=O)c1cc(N)ccc1N1CCCCC1 | -4 | -1 | 1 | -4 | 3.5 | 4385 | -23
Cc1cccc(CSc2nc3c(c(=O)n2C)SCC3)c1 | -8 | -12 | 6 | 12 | -0.3 | 4644 | 5
N#Cc1cccnc1N1CCN(C(=O)c2cccc3c2C(=O)c2ccc(-c4ccc(Cl)c(C(F)(F)F)c4)cc2S3(=O)=O)CC1 | 2 | 5 | x | 1 | 11 | 3887 | -10
O=C(CSc1ccc2ccccc2n1)Nc1nsc(-c2ccc(Cl)cc2)n1 | -5 | 2 | -24 | -6 | 1.9 | 10347 | 17
CCOC(=O)c1sc(=S)n(CC)c1N | 0 | 12 | -3 | -4 | 4.0 | 3391 | 0
O=C(O)C1c2ccccc2C(=O)N(Cc2ccc(F)cc2)C1c1ccncc1 (stereo not given) | -5 | 7 | -2 | 8 | 4.4 | x | x
O=C(O)c1nnn(-c2ccc(F)cc2F)c1-c1ccccc1 | 6 | 3 | 4 | 16 | 0.8 | 4184 | -32
CCN(CC(=O)NCc1cccs1)C(=O)c1ccc(Cl)c(Cl)c1 | 8 | 4 | x | 20 | -2.4 | 5390 | -20
COC(=O)N/N=C/c1c(C)cc(C)cc1C | x | x | -6 | x | x | 2219 | -15
O=C(/C=C/c1ccccc1)NC1CCS(=O)(=O)C1 (stereo not given) | -7 | -5 | -2 | 1 | -1.8 | 2501 | -11
O=S(=O)(NCCCc1ccccc1)c1ccc(Br)cc1 | 14 | 7 | -1 | 5 | 1.1 | 6671 | -27
O=C(Nc1ccc(-c2ccc3nncn3n2)cc1)C1CCCCC1 | 3 | -5 | 21 | -1 | 1.9 | 4665 | -8
OC(COc1ccc2c(c1)OCO2)CN1CCc2ccccc2C1 (stereo not given) | 4 | 3 | 12 | 15 | 5.2 | 12634 | -19
COc1ccc(NC(=O)c2cc(-c3ccccc3)on2)cc1 | -2 | -3 | -5 | 8 | 4.2 | x | 5
O=C(O)C12CC3CC(C1)CC(n1cnc(Cl)n1)(C3)C2 | 12 | 6 | 11 | -4 | 3.9 | 3098 | -47
CC(=O)[C@@H]1[C@@H](C(=O)c2ccc(C)cc2)[C@]2(C(=O)Nc3ccccc32)[C@H]2C=Cc3cc(F)ccc3N12 | 8 | 10 | 15 | -13 | 6.9 | 2903 | -31&-13
O=c1[nH]cnc2c1cnn2Cc1ccccc1Cl | 4 | 7 | -3 | 8 | 2.5 | 3843 | -10
Cc1oc(CN2CCOCC2)cc1C(=O)O | 5 | 9 | -7 | 5 | 1.8 | 4541 | -14
COc1ccc(S(=O)(=O)N2CCCCC2)cc1NC(=O)c1cccs1 | 0 | 5 | -6 | 8 | 6.5 | u | -15
CC(C)NCCOCCOc1ccc(Cl)cc1Br | 7 | 0 | -3 | 4 | 4.1 | 1941 | -4
COc1ccc(NC(=O)C/C(C)=N/NC(=O)c2cnccn2)cc1Cl | x | x | -6 | x | x | 6143 | -16

An excerpt from above in order of number of heavy atoms, low to high:
SMILES | Mtb hypoxia rep | Mtb hypoxia rep growth | BJeLR lethal | Sa ugtP lethal | RN4220 kill | Bead autofluor | PrP 5UTR inh
Cc1ccc(CN2CCS(=O)(=O)CC2)cc1 | x | x | 6 | 8 | -1.0 | 2893 | -25
Nc1nccnc1C(=O)N/N=C/c1ccco1 | x | x | -7 | x | x | 4345 | -21
CC(C)NCCOCCOc1ccc(Cl)cc1Br | 7 | 0 | -3 | 4 | 4.1 | 1941 | -4
O=S(=O)(NCCCc1ccccc1)c1ccc(Br)cc1 | 14 | 7 | -1 | 5 | 1.1 | 6671 | -27
O=C(O)c1nnn(-c2ccc(F)cc2F)c1-c1ccccc1 | 6 | 3 | 4 | 16 | 0.8 | 4184 | -32
CCN(CC(=O)NCc1cccs1)C(=O)c1ccc(Cl)c(Cl)c1 | 8 | 4 | x | 20 | -2.4 | 5390 | -20
OC(COc1ccc2c(c1)OCO2)CN1CCc2ccccc2C1 (stereo not given) | 4 | 3 | 12 | 15 | 5.2 | 12634 | -19
COc1ccc(S(=O)(=O)N2CCCCC2)cc1NC(=O)c1cccs1 | 0 | 5 | -6 | 8 | 6.5 | u | -15
COc1ccccc1CCN1CCCC(CN(C)C(=O)c2ccoc2)C1 (stereo not given) | 6 | 1 | 2 | 12 | 4.3 | 6138 | -23
O=C(CSc1ccc2ccccc2n1)Nc1nsc(-c2ccc(Cl)cc2)n1 | -5 | 2 | -24 | -6 | 1.9 | 10347 | 17
CSc1ccc(CCNC(=O)C2CCCN(S(=O)(=O)N3CCOCC3)C2)cc1 (stereo not given) | -1 | -3 | 6 | 1 | 3.0 | 5946 | -9
CC(=O)[C@@H]1[C@@H](C(=O)c2ccc(C)cc2)[C@]2(C(=O)Nc3ccccc32)[C@H]2C=Cc3cc(F)ccc3N12 | 8 | 10 | 15 | -13 | 6.9 | 2903 | -31&-13
COc1ccc(C=NNC(=O)CCN2CCCCC2c2cccnc2)cc1Cn1cc([N+](=O)[O-])cn1 (stereo not given) | -1 | -1 | x | 5 | 1.0 | x | x
N#Cc1cccnc1N1CCN(C(=O)c2cccc3c2C(=O)c2ccc(-c4ccc(Cl)c(C(F)(F)F)c4)cc2S3(=O)=O)CC1 | 2 | 5 | x | 1 | 11 | 3887 | -10

(next part)
SMILES | Mtb hypoxia rep | Mtb hypoxia rep growth | BJeLR lethal | Sa ugtP lethal | RN4220 kill | Bead autofluor | PrP 5UTR inh
CN(CC(=O)Nc1ccc(F)c(F)c1F)C(=O)c1n[nH]c(=O)c2ccccc12 | 0 | 1 | x | 5 | 1.4 | 8240 | -11
O=S(=O)(c1cccc(F)c1)N1CCN(Cc2ccc3c(c2)OCO3)CC1 | 8 | 7 | 19 | 17 | 7.7 | 16310* | -12
CSc1ccc(/C=C/C(=O)OCC(=O)NC(C)C)cc1 | 7 | 0 | 1 | 7 | 8.0 | 3993 | -17
O=C(CCN1C(=O)C2C3C=CC(C4CC34)C2C1=O)Nc1ccc(Cl)cc1O (stereo not given) | 4 | 9 | -4 | 6 | 2.2 | 6305 | -11
Cc1cc(C)c(NC(=O)CCCOC(=O)C2=COCCO2)c(C)c1 | 0 | 16 | -1 | 0 | 15 | 3199 | -8
Cc1ccoc1C(=O)N1CCCC(CCC(=O)N2CCN(c3ccccn3)CC2)C1 (stereo not given) | -4 | 0 | -3 | 6 | 4.3 | 4497 | 1
CCc1ccc(OCC(=O)NNC(=O)C2CCC2)cc1 | 1 | 3 | -9 | 7 | 1.5 | x | -27
O=C(Cn1nnc(-c2cccs2)n1)NNC(=O)c1ccccc1Cl | 9 | 14 | 1 | 8 | 2.1 | 4585 | -20
O=C(NC(=S)NCc1cccnc1)c1ccc([N+](=O)[O-])cc1 | 2 | 2 | 3 | 4 | 0.9 | 1949 | 2
COc1cc(OC)c(C(=O)NCCCN2CCOCC2)cc1OC | 8 | 11 | 6 | 10 | 0.9 | 3950 | -2
COc1ccccc1NC(=O)Cc1nnc(SCC(=O)c2ccccc2)n1C | 9 | 4 | 5 | 5 | 2.1 | 3485 | -26
COc1ccc(/C=C/C(=O)c2cc(Br)ccc(=O)c2O)cc1 | 16 | 12 | x | 95* | 94* | 7862 | -17
N#C/C(=C\c1c(N2CCCCC2)nc2ccccn2c1=O)S(=O)(=O)c1ccccc1 | x | x | -5 | -2 | 1.5 | 5050 | -18
Cc1ccc(NC(=O)CSc2nc(-c3ccco3)nc3cc(=O)[nH]n23)c(Cl)c1 | 5 | -7 | -4 | -7 | 6.9 | 5777 | -5
Cc1ccc(C(=O)CNc2ccc(Br)cc2)cc1 | -3 | 0 | -5 | -3 | 3.1 | 5168 | -30
Cc1cccc(NC(=O)CCNS(=O)(=O)c2cccc3nsnc23)c1 | 2 | -6 | -15 | -7 | -1.9 | 3743 | -27
O=C(C[n+]1cccc2ccccc21)c1ccc(Cl)cc1 | 16 | -1 | 1 | 11 | -0.5 | 8666 | -17
CN(CCCCC(=O)/C=N/O)Cc1ccccc1 (tested in a mixture with another compound) | x | x | -7 | x | x | 9232 | -22
CN1/C(=C\C(=O)COC(=O)C2COc3ccccc3O2)C(C)(C)c2ccccc21 (stereo not given) | x | x | -12 | 12 | 3.1 | 5013 | -24
O=C(c1ccccc1CCc1ccccc1)N1CCOCC1 | x | x | -2 | -4 | 6.5 | 3590 | -15
COCCn1c(C)cc(C(=O)COC(=O)c2cccnc2SC)c1C | 9 | 10 | x | 5 | 3.7 | 3287 | 8
O=C(O)CSCC(=O)N1CCN(S(=O)(=O)c2ccccc2)CC1 | -1 | -6 | 3 | 5 | 0.9 | 4780 | -10
COc1cc(CNCCc2ccc(F)cc2)ccc1OCc1ccc(Cl)nc1 | 6 | 15 | 2 | -21 | -13 | 2913 | -11
CC/C(=N\Nc1ccc([N+](=O)[O-])cc1[N+](=O)[O-])c1ccc(O)cc1 | x | x | 6 | x | x | 3428 | -9
Cc1ccc(-c2nnn(CC(=O)N(Cc3cccs3)C(C(=O)NC(C)(C)C)c3ccco3)n2)o1 (stereo not given) | 5 | -3 | -7 | 4 | 0.6 | 11019 | -6
CCOc1cccc(CN2CCCC(C(=O)Nc3ccc(-c4ccn[nH]4)cc3)C2)c1O (stereo not given) | 13 | 10 | 7 | 5 | 4.2 | 5171 | -13
O=S(=O)(c1ccc(F)cc1)N1CCN(C(=S)NCc2ccco2)CC1 | 10 | 8 | 2 | 4 | 4.8 | 2021 | -2
COc1ccc(/C=N/NC(=O)c2cc[n+]([O-])cc2)cc1 | x | x | -3 | x | x | 4067 | -34
O=c1cc(O)nc[nH]1 | -8 | 2 | -3 | 5 | 6.2 | 3585 | 5
Cc1c(C#N)c(O)n(CCO)c(=O)c1N=Nc1ccccc1 | -8 | -3 | -2 | -1 | 3.4 | 3797 | -27
Cc1ccccc1-c1nc(CN2CCC(C(=O)NCCCN3CCCC(C)C3)CC2)c(C)o1 (stereo not given) | 19 | 6 | 17 | 9 | 3.3 | 5921 | -9
Cc1noc(C)c1CS(=O)(=O)c1ccc(Br)cc1 | 1 | 5 | 1 | 2 | 3.9 | 10237 | -13
Cc1nc(NN=Cc2ccccn2)sc1C | 11 | 5 | x | 4 | 9.1 | x | x
Cc1ccccc1OC(C)C(=O)Nc1ccc(S(=O)(=O)N2CCCC2)cc1 (stereo not given) | 9 | 11 | -7 | 1 | -2.1 | 5378 | -22
NS(=O)(=O)c1ccc(CCNC(=O)COC(=O)/C=C/c2cc(Br)ccc2F)cc1 | -7 | 15 | x | -8 | -1.6 | 2855 | x
Cn1c2ccc(F)cc2c2nc3ccccc3nc21 | 12 | 24 | 0 | 21 | 3.0 | 3088 | -31
CCOc1ccc(CCNC(=O)c2cccc(-n3cnnn3)c2)cc1OCC | 8 | 19 | x | 4 | -0.3 | 3593 | -22
O=C(O)CC12C[C@H]3C[C@@H](C1)CC(n1ncc(N4CCN(c5ccccc5)CC4)c(Cl)c1=O)(C3)C2 | 5 | -1 | -3 | 10 | 2.4 | 2416 | -24
COc1ccc(OC(=O)c2cn(C)nc2C(F)(F)F)cc1 | x | x | 1 | 2 | 5.1 | 2706 | -11
